High-throughput results: PubChem, Emory University Molecular Libraries Screening Center
Measles inh = inhibitors of measles virus growth in infected cells; z-score (concentration not given with the values); actives 0.1% (n = 33,000); infected Vero cells, GFP fluorescence, 64 h; hits give low values; AID 745;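 active = z-score under -3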;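 note: score is relative to mean and SD of the compound wells of a plate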
An asterisk follows results filed as active. Some of the compounds tested. The share of hits here may be higher or lower than overall.

SMILES | Measles inh
CCOC(=O)c1c(C)n(-c2ccccc2)c2c1cc(OC(=O)c1ccco1)c1ccccc12 | -0.27
O=C(Nc1cccc(-c2nc3ncccc3o2)c1)c1sc2ccccc2c1Cl | -0.17
O=C(Nc1ccccc1C(F)(F)F)C1CC(=O)N(c2ccccc2Cl)C1 (stereo unspecified) | -0.21
Cc1cccc2oc(-c3cc(N=Cc4cccc([N+](=O)[O-])c4)ccc3O)nc12 | -0.27
Cc1ccc(CN2C(=O)c3ccccc3Sc3ccc(C(=O)NCc4cccnc4)cc32)cc1 | -0.34
COc1ccc(C2C(C(=O)OCCOc3ccccc3)=C(C)NC3=C2C(=O)CCC3)cc1OC (stereo unspecified) | -0.61
O=C(NCCN1CCOCC1)C(=O)Nc1ccccc1F | -0.4
COc1ccc2nc(N3CCCC(C(=O)NCc4ccco4)C3)sc2c1 (stereo unspecified) | 0.14
CCCCOc1ccc(-c2nc3ncccn3c2NC2CCCCC2)cc1 | -0.39
O=C(c1cccn2c(=O)c3cc4ccccc4cc3nc12)N1CCOCC1 | 2.66
CC(C)C(=O)N1c2ccccc2NC2=C(C(=O)CC(c3ccccc3)C2)C1c1ccc(F)cc1 (stereo unspecified) | -0.05
CC(=O)C1C(c2ccc(Br)cc2)c2c(noc2C)CC1(C)O (stereo unspecified) | -0.36
COc1ccccc1OCCCCCCN1CCOCC1 | -0.57
COc1ccc(CCNC(=O)c2cn(C)c(=O)c3cc(OC)c(OC)cc23)cc1OC | -0.32
CCc1cc(-c2n[nH]c(=S)n2CC2CCCO2)cs1 (stereo unspecified) | 1.75
CCOc1ccc2nc(SCC(=O)Nc3cccc(SC)c3)sc2c1 | -0.01
O=C(NC1CCCC1)C1CCN(S(=O)(=O)N2CCOCC2)CC1 | 1.54
Cc1nnc(Nc2cccc(C(F)(F)F)c2)[nH]c1=O | 2.66
Cc1cc(C)cc(-n2nc3c(c2NC(=O)CCCCl)CSC3)c1 | -0.91
CCOc1ccc(-n2c(=O)c3c4c(sc3n(CC(=O)NC(C)CC)c2=O)CCCCC4)cc1 (stereo unspecified) | -0.53
CCOc1ccc(-n2c(-c3c(Cl)c(C)nn3C)n[nH]c2=S)cc1 | -0.57
CSc1nc(C)c(C(=O)Nc2ccccc2C)c(-c2ccc(Cl)cc2)c1C#N | 1.29
O=c1[nH]c2ccc(S(=O)(=O)NCc3ccc(F)cc3)cc2[nH]c1=O | -0.89
O=[N+]([O-])c1cccc(-c2nc(N3CCCCCC3)c3ccccc3n2)c1 | 0.66
[O-]c1n[n+](-c2ccccc2Br)no1 | -0.45
CC(C)(C)C(=O)CSc1nc2cc(C(=O)N3CCN(c4ccccc4)CC3)ccc2c(=O)n1Cc1ccccc1 | -1.33
Cc1ccc2c(c1)C(c1ccccc1)N(C(=O)c1ccccc1F)CC(=O)N2 (stereo unspecified) | -0.47
Cn1c(=O)c2c(nc(SCc3cc4c(cc3Cl)OCO4)n2C)n(C)c1=O | 0.75
O=C(NCCc1ccc(Cl)cc1)c1ccc2nc(-c3ccco3)c(-c3ccco3)nc2c1 | -1.63
Nc1ccc(-c2nc3ccc(-c4nc5ccccc5o4)cc3[nH]2)cc1 | -0.18
O=C(O)CC(NC(=O)COc1ccccc1)c1ccc(Cl)cc1 (stereo unspecified) | 0.55
CC(NC(=O)CSc1nnc(-c2ccc(Cl)cc2)n1-c1ccccc1)c1ccccc1 (stereo unspecified) | -0.24
O=C(Oc1ccc(Cl)cc1)c1ccc([N+](=O)[O-])cc1 | -0.7
Fc1ccccc1-c1nc(NCc2ccccc2Cl)c2ccccc2n1 | 0.97
O=C(COc1ccccc1)Nc1ccccc1Br | 1.56
O=C(O)c1cc(N=Cc2ccc(Br)c([N+](=O)[O-])c2)ccc1O | 0.03
COc1cc(Br)cc2c1OC1(C)CC2NC(=S)N1c1ccccc1 (stereo unspecified) | -0.23
O=C(c1ccc(S(=O)(=O)N2CCOCC2)cc1)N1CCN=C1SCc1ccccc1F | 1.09
CCCCNC(=O)c1cc(Nc2ccc(CC)cc2)nc2ccccc12 | -0.88
COc1ccc2c(c1OC)C(=O)OC2CC(=O)c1ccc(C)cc1 (stereo unspecified) | -0.61
CCSc1nnc2c(n1)OC(c1ccccc1C)N(C(C)=O)c1ccccc1-2 (stereo unspecified) | 0.78
COc1ccc(NC(=O)c2cc([N+](=O)[O-])ccc2Cl)cc1 | -0.68
O=c1[nH]c2ccccc2nc1Cc1ccccc1F | 3.16
COC(=O)c1ccc(C2C(C(=O)OCc3ccc(OC)cc3)=C(C)NC3=C2C(=O)CC(C)(C)C3)cc1 (stereo unspecified) | -0.4
Cc1ccc(C(=O)O)cc1NC(=O)c1ccc2c(c1)C(=O)N(c1ccc([N+](=O)[O-])cc1)C2=O | -1.35
Cn1c(=O)cc(Nc2ccc(Cl)cc2)[nH]c1=O | 1.5
COc1cc(C(=O)O)ccc1OC(C)=O | 1.41
COc1cccc(NC(=O)CC2Nc3ccccc3NC2=O)c1 (stereo unspecified) | -0.55
O=C(Nc1cccc([N+](=O)[O-])c1)C1C2C3CCC(C3)C12 (stereo unspecified) | -1.17
CCOC(=O)c1cnc2cc(C(F)(F)F)ccc2c1Nc1ccc(C)cc1Br | 0.59

Following part
SMILES | Measles inh
O=C(c1nn2c(c1Br)NC(c1ccco1)CC2C(F)(F)F)N1CCN(C(c2ccccc2)c2ccccc2)CC1 (stereo unspecified) | 0.13
CNC(=O)C1CCN(S(=O)(=O)c2ccc(OC)c(OC)c2)CC1 | 1.04
O=C1c2sc3nnc(-c4ccccc4)c(=O)n3c2C(=O)N1c1ccccc1Cl | -0.23
Cc1ccc(C(C(=O)NC2CCCCC2)N2CCCC2)cc1 (stereo unspecified) | -0.46
Cn1cccc1CN1CCN(C(=O)c2cccc(Cl)c2)CC1 | 0.75
COc1ccccc1-c1cc(C(=O)Nc2c(C)nn(Cc3ccc(C)cc3)c2C)no1 | -0.7
O=C(NCc1cccnc1)c1cc(-c2ccc(Br)cc2)on1 | 0.27
O=C(CNS(=O)(=O)c1cccs1)N1CCN(c2ccccn2)CC1 | -0.67
CC(C)N=C(NS(=O)(=O)c1ccc(Cl)cc1)c1ccccc1 | 0.36
CCC(=O)N1CCc2cc(Br)cc(S(=O)(=O)N(CC)c3ccccc3)c21 | 1.54
CCCCCCc1cc2c(=O)c(-c3ccccc3)coc2cc1OC | 0.02
COc1ccccc1C1C(C(=O)OC2CCCC2)=C(C)NC2=C1C(=O)CC(c1ccccc1)C2 (stereo unspecified) | -0.86
CC(C)(C)c1ccc(C(=O)Nc2cccc(NC(=O)c3cccc4ccccc34)c2)cc1 | -0.32
COc1cc(C2NC(=O)C(C)S2)cc(OC)c1OC (stereo unspecified) | 0.56
NS(=O)(=O)c1cccc(C(=O)Nc2ccc([N+](=O)[O-])cc2)c1 | -2
Cn1c(=O)[nH]c(=O)c2c1nc(SCC(=O)c1ccc(Cl)cc1)n2CCc1ccccc1 | 0.82
O=C(Nc1cccc(O)c1)c1ccc(Br)c(S(=O)(=O)N2CCCCC2)c1 | 1.28
CCOC(=O)C1CCN(CC(=O)N2CCCc3c2c(=O)oc2ccc(OCc4ccccc4)cc32)CC1 | 0.04
CC(=O)OC1CC2C(Br)C1NC2(C(F)(F)F)C(F)(F)F (stereo unspecified) | -0.36
COc1ccccc1NC(=O)CC(C)Cc1cc(C)cc(C)c1 (stereo unspecified) | 1.42
O=C(O)CCCCCNS(=O)(=O)c1ccccc1F | -0.83
Cc1ccc(-c2nc3ncccc3o2)cc1NC(=O)COc1cc(C)c(Cl)c(C)c1 | 0.01
O=[N+]([O-])c1cc(-c2nn[nH]n2)ccc1F | -0.05
CC(=O)NC1=NN(C(C)=O)C(C)(c2ccccc2OC(C)=O)S1 (stereo unspecified) | 1.41
CC(Sc1nc2ccccc2n1C)C(=O)NC(c1ccccc1)c1ccccc1 (stereo unspecified) | -0.68
COc1ccc(C2CC(c3c(C)nc4ccc(Br)cc4c3-c3ccccc3)=NN2C(C)=O)cc1 (stereo unspecified) | 0.83
CC(C)c1ccc(S(=O)(=O)N2CCN(CC(=O)Nc3ccc(F)cc3)CC2)cc1 | -0.12
CC(C)c1ccc(C(=O)Nc2ccc3c(c2)C(=O)c2ccccc2C3=O)cc1 | 0.99
CCCCOCC(O)Cn1cnc2ccccc21 (stereo unspecified) | -0.72
CC(=O)c1ccc(NC(=O)c2ccccc2Cl)cc1 | -0.46
O=[N+]([O-])c1c[nH]n2ccnc12 | 0.45
CCOC(=O)CSc1nc2ccccc2c2nc(-c3ccc([N+](=O)[O-])cc3)nn12 | 0.78
CC1CCCC(NC(=O)c2cccnc2SCc2ccccc2Cl)C1C (stereo unspecified) | -0.11
CCOC(=O)CSc1nc2ccc(Br)cc2c(=O)n1Cc1ccccc1OC | 0.73
O=C(C[n+]1ccc2ccccc2c1)c1ccccc1 | -0.4
CCN1C(=S)NC2c3ccccc3OC1(C)C2C(=O)Nc1ccc(C)cc1C (stereo unspecified) | -0.23
COc1cc2c(cc1NC(=O)C13CC4CC(CC(C4)C1)C3)oc1ccccc12 | 0.73
CCOc1ccc(C(=O)Nc2ccc(-c3nc4cc(C(C)C)ccc4o3)cc2)cc1 | -0.59
COc1ccc(CCNc2ncnc3c2cnn3-c2ccc(Cl)cc2)cc1OC | -0.63
O=C(Cc1ccccn1)NCCO | -0.05

Quoted at random: 3 records from the list.
SMILES | Measles inh
O=C(Cc1ccccn1)NCCO | -0.05
O=[N+]([O-])c1c[nH]n2ccnc12 | 0.45
CCN1C(=S)NC2c3ccccc3OC1(C)C2C(=O)Nc1ccc(C)cc1C (stereo unspecified) | -0.23

Additional entries.
SMILES | Measles inh
O=S(=O)(c1ccccc1)N1CCN(CC=Cc2ccccc2)CC1 | -0.45
O=C(Nc1ccc(S(=O)(=O)N2CCCC2)cc1)c1cccs1 | 0.71
CCOc1ccc(S(=O)(=O)NC(CC)C23CC4CC(CC(C4)C2)C3)c2ccccc12 (stereo unspecified) | -2.2
O=C(Nc1nc2ccccc2s1)c1cc([N+](=O)[O-])ccc1Cl | 0.44
O=C(O)c1cccc(-c2nc3ccccc3[nH]2)c1 | 1.14
CC(C)OC(=O)c1ccc(S(=O)(=O)Cc2ccccc2F)c([N+](=O)[O-])c1 | -2.39
O=C(NCc1ccccn1)c1c(O)c2cccc3c2n(c1=O)CC3 | -0.77
CCOC(=O)c1cn(CC)c2cc(N3CCN(C)CC3)c(F)cc2c1=O | 0
CCOc1ccc(NC(=O)CCS(=O)(=O)c2ccc3c(c2)CCN3C(C)=O)cc1 | 0.08
Cc1nc([N+](=O)[O-])cn1CC(=O)NCc1ccccc1 | -0.03
Cc1ncc(CO)c2cc(C(=O)Nc3cccc(F)c3)c(=O)oc12 | -0.17
CCOC(=O)c1[nH]c2ccccc2c1NC(=O)CCC1CCCC1 | 3.06
COc1cc(NC(=O)Cc2nn(C)c(=O)c3ccccc23)cc(OC)c1 | -0.56
COc1ccccc1NCC(O)Cn1c2ccc(Cl)cc2c2cc(Cl)ccc21 (stereo unspecified) | -1.89
Cc1ccc(C2Nc3ccccc3NC3=C2C(=O)CCC3)o1 (stereo unspecified) | 0.59
CCc1cccc(C)c1NC(=O)CSc1nnnn1-c1ccc(C(=O)OC)cc1 | -0.86
CCOC(=O)C12CNC(=O)C(C(=O)OCC)(CNC1=O)C2 | 1.07
CCOC(=O)c1cccc(NC(=O)c2cc(-c3cccs3)nc3ccccc23)c1 | 1.01
O=C1CCCC2=C1C(c1ccccc1Cl)n1ncnc1N2 (stereo unspecified) | -0.1
Cc1nn(S(=O)(=O)c2cccs2)c(C)c1Sc1ccccc1 | -0.28
O=C(Cn1nc(-c2ccccc2)nc1-c1ccccc1)Nc1ccc(Br)cc1 | -1.28
COc1ccc([N+](=O)[O-])cc1C=Nc1cccc(C(=O)O)c1 | -0.72
O=C1c2cccc3cccc(c23)C(=O)N1CC1CCN(CC(O)COCC2COc3ccccc3O2)CC1 (stereo unspecified) | 0.26
CCS(=O)(=O)N1N=C(c2cccc(NS(C)(=O)=O)c2)CC1c1ccc(F)cc1 (stereo unspecified) | 0.6
CCOc1ccc(Nc2nc(N3CCOCC3)nc(C)c2[N+](=O)[O-])cc1 | -0.94
Cc1ccc(C(=O)Oc2cc(N)n(S(=O)(=O)c3ccc(F)cc3)n2)cc1C | -0.5
CCOc1ccc(C2=CC(c3cccc(OC)c3OC)n3nnnc3N2)cc1Cl (stereo unspecified) | -0.21
O=C(CCn1c(=O)[nH]c2ccccc2c1=O)NCC1COc2ccccc2O1 (stereo unspecified) | 1.02
CCOC(=O)c1sc2nc(C)n(CC(=O)Nc3cccc(Cl)c3)c(=O)c2c1C | 0.95
CCOC(=O)C1CCN(C(=O)c2sc3ncnc(N4CCCCC4)c3c2C)CC1 | -0.67

Among those listed so far, 13 have an NH in an aromatic ring:
SMILES | Measles inh
CCc1cc(-c2n[nH]c(=S)n2CC2CCCO2)cs1 (stereo unspecified) | 1.75
Cc1nnc(Nc2cccc(C(F)(F)F)c2)[nH]c1=O | 2.66
CCOc1ccc(-n2c(-c3c(Cl)c(C)nn3C)n[nH]c2=S)cc1 | -0.57
O=c1[nH]c2ccc(S(=O)(=O)NCc3ccc(F)cc3)cc2[nH]c1=O | -0.89
Nc1ccc(-c2nc3ccc(-c4nc5ccccc5o4)cc3[nH]2)cc1 | -0.18
O=c1[nH]c2ccccc2nc1Cc1ccccc1F | 3.16
Cn1c(=O)cc(Nc2ccc(Cl)cc2)[nH]c1=O | 1.5
Cn1c(=O)[nH]c(=O)c2c1nc(SCC(=O)c1ccc(Cl)cc1)n2CCc1ccccc1 | 0.82
O=[N+]([O-])c1cc(-c2nn[nH]n2)ccc1F | -0.05
O=[N+]([O-])c1c[nH]n2ccnc12 | 0.45
O=C(O)c1cccc(-c2nc3ccccc3[nH]2)c1 | 1.14
CCOC(=O)c1[nH]c2ccccc2c1NC(=O)CCC1CCCC1 | 3.06
O=C(CCn1c(=O)[nH]c2ccccc2c1=O)NCC1COc2ccccc2O1 (stereo unspecified) | 1.02
